UUG fidelity – yeast start codon fidelity modulation; 350,000 tested, 0.13% active; S. cerevisiae UUG-firefly luciferase reporter, luminescence/redox ratio; activity score, % at 18.7 µM;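 active = replicate mean at a twofold rise or more, about +100% in these data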;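 also: firefly luciferase made from a UUG start codon reports start codon fidelity; reporter light over untreated wells divided by growth signal over untreated wells; some hits fall short of that in this replicate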
eIF4H inh – inhibitors of RNA binding by human eIF4H | eIF4H fluorescence polarization binding assay | Q15056 | 290,000 tested, 0.94% active | inhibition, % at 35 µM | AID 2012;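 active = 50% or more with normal probe brightness, or confirmed in later tests; inconclusive = above 50% with abnormal brightness, or retests that disagree; inactive = below 50% or failed in later tests; about a fifth of its hits are not listed in these tables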;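 also: calls also rest on retests at 20 µM and on dose response follow-up; 0% = protein and probe with vehicle and 100% = probe without protein; strong numbers were not always called active; many hits fall short of the cut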
Env fusion inh – HIV envelope-mediated fusion inhibition | HeLa-JRFL Env/CEM21 cell fusion, luciferase | inhibition, % at 12.3 µM | 360,000 tested, 1.1% active | AID 651610;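 active = mean replicate inhibition score of at least 50 and every replicate individually at or above 50; inconclusive = only one of the two criteria met; inactive = mean below 50 and not all replicates reaching 50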;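 also: 0% = plate neutral controls and 100% = maraviroc near 300 nM; one replicate is shown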
PABP polyA inh – PABP-poly(A) binding inhibition; P11940; inhibition, % at 35 µM; PABP-poly(A) RNA binding, fluorescence polarization; 290,000 tested, 1% active; AID 2014;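 active = 50% or more with normal probe brightness, or confirmed in later tests; inconclusive = above 50% with abnormal brightness, or retests that disagree; inactive = below 50% or failed in later tests; about a fifth of its hits are not listed in these tables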;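 also: calls also rest on retests at 20 µM and on dose response follow-up; controls were probe without protein and protein plus probe with vehicle; some compounds called inactive have numbers as strong as hits; many hits fall short of the cut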
Target sequence (P11940 whole entry, looked up): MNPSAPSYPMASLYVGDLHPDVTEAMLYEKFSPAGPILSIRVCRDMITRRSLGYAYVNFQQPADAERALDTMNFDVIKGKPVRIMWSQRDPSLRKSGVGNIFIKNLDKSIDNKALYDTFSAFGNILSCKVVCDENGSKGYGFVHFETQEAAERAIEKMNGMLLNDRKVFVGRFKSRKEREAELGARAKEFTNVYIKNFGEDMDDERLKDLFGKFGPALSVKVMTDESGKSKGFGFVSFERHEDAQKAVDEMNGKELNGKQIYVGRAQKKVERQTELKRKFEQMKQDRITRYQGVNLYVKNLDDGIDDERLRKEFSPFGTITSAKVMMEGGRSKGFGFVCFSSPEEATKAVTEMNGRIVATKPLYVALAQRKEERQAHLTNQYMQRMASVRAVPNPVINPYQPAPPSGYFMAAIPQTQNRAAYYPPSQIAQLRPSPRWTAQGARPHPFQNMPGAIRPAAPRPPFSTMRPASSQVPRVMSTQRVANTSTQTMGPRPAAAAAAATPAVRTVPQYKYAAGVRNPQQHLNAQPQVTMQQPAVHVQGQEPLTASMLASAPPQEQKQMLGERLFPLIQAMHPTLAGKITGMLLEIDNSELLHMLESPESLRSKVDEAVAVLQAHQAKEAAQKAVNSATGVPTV
MT1-MMP act inh – inhibitors of human MT1-MMP activation | AID 651647 | P50281 | HT1080 RFP-PRO-GFP cells, GFP/RFP ratio fluorescence, overnight; percent of plate control window, DMSO zero | GFP/RFP ratio change, % at 20 µM | 360,000 tested, 0.061% active;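 active = GFP/RFP ratio change of at least 30% with cell ATP level not reduced by more than half and red fluorescence within 50% of control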; also: strong numbers were not always called active
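Compound: 20 µM single dose, 1% DMSO / System: HT1080 RFP-PRO-GFP cells / Controls: DMSO and RFP-L50D-GFP cell wells / Read-out basis: GFP/RFP fluorescence ratio / Schedule: overnight compound exposure at 37 °C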
CSC inhib – blocks cancer stem cells. 300,000 tested, 1.1% active. AID 2717. inhibition, % at 7.5 µM. cancer stem cell-like cells viability, luminescence;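 active = mean at 75% or more and at least half the replicates too; inconclusive = mean and replicates disagree; tested in HMLE shEcad cells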;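 also: 0% = median of negative and 100% = median of positive control wells; the first replicate is given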
Rce1 inh – blocks yeast Ras-converting enzyme. yeast membranes, quenched prenylated peptide cleavage fluorescence. calls only. 290,000 tested, 0.27% active. AID 2563;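 active = fall in fluorescence gain of 50% or more versus controls, with final raw signal at or below 3038400; inconclusive = same 50% fall but final raw signal above 3038400; inactive = fall in fluorescence gain under 50%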;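 also: plate controls were neutral control wells for no effect and wells lacking membranes for full effect; tested at 10 µM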
Target sequence (Q03530 whole entry, looked up): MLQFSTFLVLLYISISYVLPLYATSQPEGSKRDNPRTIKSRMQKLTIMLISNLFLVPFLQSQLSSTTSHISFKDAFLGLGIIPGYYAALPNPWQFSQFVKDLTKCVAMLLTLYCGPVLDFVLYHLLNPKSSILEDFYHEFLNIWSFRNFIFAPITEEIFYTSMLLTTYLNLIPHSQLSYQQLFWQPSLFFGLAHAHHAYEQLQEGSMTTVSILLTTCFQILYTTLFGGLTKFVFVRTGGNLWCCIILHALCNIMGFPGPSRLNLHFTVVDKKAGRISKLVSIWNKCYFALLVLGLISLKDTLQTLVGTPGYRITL
eIF4H inh retest – also measured in eIF4H inh; calls as there; inhibition, %; compound at 20 µM; confirmation average;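 mean of two retest wells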
PABP polyA inh retest – second read-out of PABP polyA inh, no call of its own (marks repeat the call); inhibition, %; compound at 20 µM; confirmation repeats;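 mean of two retest wells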
MT1-MMP act inh RFP – further read-out of MT1-MMP act inh, marked with its call; RFP signal change, %; measured here: RFP expression control read;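 0 = vehicle wells; hits needed this value within 50% of zero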
Numbers without * were called inactive; i = inactive; ? = inconclusive; · = no result given.

SMILES	UUG fidelity	eIF4H inh	Env fusion inh	PABP polyA inh	MT1-MMP act inh	MT1-MMP act inh RFP	CSC inhib	Rce1 inh	others
CC(=O)Nc1cccc(C(=O)OCC(=O)c2ccc3c(c2)OCO3)c1	-75	·	25	·	10	2	6	i
CCCOc1ccc(Cc2nn3c(=O)/c(=C/c4ccco4)sc3nc2=O)cc1	-5	84*	-12	23*	4	-4	0	i	eIF4H inh retest=87*;PABP polyA inh retest=86*
CS(=O)(=O)Nc1ccc(C(=O)Nc2ccccc2Cl)cc1	·	3	-23	1	0	2	-7	i
CCN1CCN(CCCNC(=O)CCc2nc(-c3ccc(OC)cc3)no2)CC1	-12	0	-8	-10	1	2	-14	i
CCOC(=O)N1CCC(NC(=O)CCC(=O)N2CC(C)Oc3ccc(C)cc32)CC1 (stereo not drawn)	21	-4	·	5	-3	2	-10	i
CC(C)Oc1ccc(C(=O)NC(=S)Nc2ccc(Cl)c(C(=O)O)c2)cc1	·	2	12	17	1	-4	-10	i
CC(C)(CO)Nc1ccc([N+](=O)[O-])cc1[N+](=O)[O-]	2	-3	·	9	5	3	9	i
NC(=S)C1COc2ccccc2O1 (stereo not drawn)	-32	-7	-20	6	0	-2	7	i
COc1ccc2c(c1)N(C)/C(=C/c1cccc[n+]1C)S2	-1	-1	22	35	-86	-22	37	i
COc1cc(/C=N/NC(=O)c2ccoc2C)ccc1OCCN1CCCCC1	-6	1	6	11	6	7	0	i
N#Cc1cccc(S(=O)(=O)NCC(=O)OCC(=O)NCc2ccccc2)c1	-8	·	0	·	-1	3	·	·
COc1ccc(S(=O)(=O)NCCN2CCNC2=O)cc1OC	-14	-1	-4	6	2	7	9	i
CC(C)(C)C(=O)Nc1cc(C(F)(F)F)ccc1N1CCOCC1	-11	-4	·	3	1	3	-23	·
Cc1ccc(Cl)cc1NC(=O)Cn1cccc1	-9	-5	-18	18	2	4	-17	i
Cc1ccc(Nc2nnc(SCC(=O)c3ccc(Br)s3)s2)c(C)c1	-15	1	-13	6	-1	3	-11	i
Cc1nc2c(-c3ccc(Cl)cc3)cnn2c2c1CCC2	·	1	-22	-5	-3	3	3	i
Cc1ccc(S(=O)(=O)N(C)C)cc1NC(=O)c1n[nH]c(=O)c2ccccc12	·	0	-3	8	3	5	-8	i
O=C(COC(=O)CCc1c[nH]c2ccccc12)NC1CCS(=O)(=O)C1 (stereo not drawn)	-15	-4	-6	-3	5	6	-8	i
COc1ccc(CN(C(=O)c2snc(C(N)=O)c2N)C(C(=O)NC2CCCC2)c2ccc(OC)c(OC)c2)cc1 (stereo not drawn)	-9	4	-6	-8	-4	-6	-11	i
CCN(CC)C(=O)c1cncc(C(=O)N(CC)CC)c1-c1ccccc1	8	7	-8	8	-2	2	-8	i
CCOC(=O)c1c(-c2ccccc2Cl)csc1NC(=O)c1cc(S(=O)(=O)N2CCOCC2)ccc1C	-33	-2	·	6	-7	-6	-20	i
CC1(NC(=O)CC(c2ccccc2)(c2ccccc2)c2ccccc2)CCN(Cc2ccc(-c3ccccc3)cc2)C1=O (stereo not drawn)	-18	·	13	·	-12	-16	·	·
CS/C(=N\N(C)C(N)=O)c1ccccc1	-10	-9	-19	3	6	4	·	i
COC(=O)c1ccc(S(=O)(=O)N2CCc3ccccc3C2)cc1	-8	7	5	11	10	0	14	i
COc1ccc(N2CCN(CCNC(=O)Nc3ccc(C)cc3Cl)CC2)cc1	-16	-3	-1	1	1	0	17	i
COc1ccccc1C(=O)N/N=C(\C)c1cccnc1	·	·	-8	·	-1	0	1	i
NC(=O)Cc1ccc2c(c1)[nH]c1ccccc12	-11	8	0	2	0	-1	-16	i
COc1ccc(CCNC(=O)COC(=O)c2ccccn2)cc1	-7	·	2	·	3	-2	-16	·
COc1ccc(CC(=O)Nc2cccc(-c3ccc4nnc(C)n4n3)c2)cc1	·	-6	11	-17	8	7	-27	i
Cc1ccc(-c2cc(C(=O)O)c3sc(N4CCCCC4)nc3n2)cc1	·	8	3	-5	3	5	-1	?
Cc1ccc(S(=O)(=O)Cn2nnnc2C(c2ccccc2)N2CCN(c3ccccc3)CC2)cc1 (stereo not drawn)	-2	-10	·	-1	-20	-4	-8	i
CCOC(=O)N1CCN(C(=O)C2CC(c3ccc(F)cc3)=NO2)CC1 (stereo not drawn)	-11	1	-27	1	0	2	-7	i
COc1ccc(CCNC(=O)C2CCN(S(=O)(=O)c3ccc(Cl)cc3)CC2)cc1OC	·	-5	·	-14	1	-7	-13	i
CCc1noc(C)c1C(=O)Nc1ccc(S(=O)(=O)N2CCC(C)CC2)cc1	-2	·	-8	·	1	-8	-6	i
O=C(O)CC(NC(=O)C1c2ccccc2Oc2ccccc21)c1ccc(Cl)cc1 (stereo not drawn)	·	3	8	0	1	5	3	i
CC(C)(C)[C@H]1COC(=O)CCCC/C=C\C[C@H](CC(=O)N(CCO)Cc2ccccc2)C(=O)N1	-5	·	5	·	-2	-2	·	·
CCOCC(=O)OCC(=O)Nc1cc(OC)c([N+](=O)[O-])cc1C	·	-3	2	5	1	4	-21	i
CC(CCN1CCC(CN2C(=O)C(=O)NC[C@@H]2Cc2ccccc2)CC1)c1ccccc1 (stereo partly drawn)	-10	·	-126	·	5	5	·	·
O=S(=O)(Nc1cccc(S(=O)(=O)N2CCCCCC2)c1)c1ccc(F)cc1F	·	·	-1	·	5	-5	-7	·
CC(=O)c1c(C)[nH]c(C(=O)OCC(=O)Nc2ccc3c(c2)OCCO3)c1C	-8	·	·	·	2	-11	-5	·
Cc1nn(-c2nc(-c3ccco3)cc(C(F)(F)F)n2)c(C)c1Cl	-14	0	-1	-2	-1	-1	5	·
CCn1c(SCC(=O)Nc2ccccc2C(=O)OC)nnc1-c1cccc(C)c1	-21	-4	·	-12	2	0	-11	i
COc1ccc(N(C)S(=O)(=O)c2cccc(C(=O)OCC(=O)c3c(N)n(C)c(=O)n(C)c3=O)c2)cc1	-8	·	33	·	-11	-25	-14	·
COCCNc1nc2ccccc2nc1NS(=O)(=O)c1ccc(C)cc1C	·	8	·	2	-4	-1	17	i
CCOC(=O)N1CCN(C(=O)CN(Cc2ccc(Cl)cc2)S(C)(=O)=O)CC1	11	-8	·	2	1	1	-2	i
COc1ccccc1NC(=O)C(C)Nc1ccc(C)c(Cl)c1 (stereo not drawn)	·	10	-1	-2	0	3	-4	i
CCOc1ccc(Cl)cc1S(=O)(=O)N1CCC(C(=O)NCc2ccncc2)CC1	-6	1	-15	0	-4	-1	11	i
O=C1CCC/C=C\C[C@@H](CC(=O)N(CCO)Cc2ccccc2)C(=O)N2CCC[C@H]2CO1	-17	·	-9	·	4	4	·	·
O=C(Cn1c(=O)cnc2ccccc21)N1CCCc2ccccc21	-15	-10	-1	6	-2	1	15	i
CC(C)c1nnc(NC(=O)CCS(=O)(=O)c2nc(-c3cccs3)cc(C(F)(F)F)n2)s1	·	4	85*	-7	-11	-15	45	i
CC(=O)N1CCCc2cc(S(=O)(=O)Nc3ccc4c(c3)OCO4)ccc21	-16	-9	-58	2	5	-3	2	i
NS(=O)(=O)c1ccc2nc(NC(=O)C3=COCCO3)sc2c1	-20	-2	-14	1	1	1	5	i
O=C(NC1CCCC1)C1CCCN1C(=O)Nc1ccccc1Cl (stereo not drawn)	-10	-11	·	6	5	-4	-12	i
O=C(O)c1nn(CCOc2ccccc2F)c(=O)c2ccccc12	-4	0	-4	8	1	0	-3	i
Cc1ccc(NC(=S)N2CCN(CCN3C(=O)c4cccc5cccc(c45)C3=O)CC2)cc1	-24	6	-254	-15	6	-3	5	i
CC(C)NC(=O)CCCN1C(=O)c2ccccc2Sc2ncccc21	-13	-2	3	5	-3	1	-12	i
COc1cccc(CN2CCC2(C)C(=O)Nc2ccc(C)c(O)c2)c1F (stereo not drawn)	-14	·	18	·	1	-10	·	·
O=C(/C=C/c1cccc(Br)c1)Nc1nn[nH]n1	·	0	-10	9	·	·	6	i
CCc1nnc(NC(=O)c2c(-c3ccccc3)noc2C)s1	-15	2	15	6	-4	1	-3	i
CC(=O)N1CCc2cc(S(=O)(=O)CCC(=O)N3CCN(c4ccccc4)CC3)ccc21	-14	13	4	1	-1	-5	-3	i

Fetched by structure from above:
SMILES	UUG fidelity	eIF4H inh	Env fusion inh	PABP polyA inh	MT1-MMP act inh	MT1-MMP act inh RFP	CSC inhib	Rce1 inh	others
Cc1ccc(Nc2nnc(SCC(=O)c3ccc(Br)s3)s2)c(C)c1	-15	1	-13	6	-1	3	-11	i
O=S(=O)(Nc1cccc(S(=O)(=O)N2CCCCCC2)c1)c1ccc(F)cc1F	·	·	-1	·	5	-5	-7	·

Going on with the list:
SMILES	UUG fidelity	eIF4H inh	Env fusion inh	PABP polyA inh	MT1-MMP act inh	MT1-MMP act inh RFP	CSC inhib	Rce1 inh	others
CCOc1ccc(N2C(=O)CN(C)C2=S)cc1	-8	0	8	-14	-17	-5	22	i
O=C(COc1ccccc1F)N1CCCc2ccccc21	-9	-3	9	1	2	1	-7	i
Cc1ccc2c(c1)C(=O)OC1(O)C3C4C=CC(C4)C3C(=O)N21 (stereo not drawn)	·	0	-4	-5	1	7	-7	i
COc1cccc(CN(C)C(=O)c2ccc(C)c(S(=O)(=O)N3CCCCC3)c2)c1	-10	·	7	·	6	-6	·	·
CCOC(=O)C1(Cc2ccccc2)CCCN(Cc2ccc(OCCO)cc2)C1 (stereo not drawn)	0	6	16	0	-9	4	1	i
O=C(O)C1CC(c2ccc(F)cc2)=NO1 (stereo not drawn)	-21	90	·	26	7	-1	-4	i	eIF4H inh retest=11;PABP polyA inh retest=10
CN(C)/C=C/C(=O)c1cnc2n(c1=O)CCS2	·	3	20	-2	2	2	-2	i
CC(=O)c1cccc(NC(=O)NC(C)C2CCCO2)c1 (stereo not drawn)	·	-4	-16	-8	-1	-3	-18	i
CC(=O)c1ccc(NC(=O)/C(=C\c2cccs2)NC(=O)c2ccco2)cc1	·	-2	16	-5	-1	1	-11	i
COc1ccc(-c2nc(-c3ccc(Br)o3)no2)cc1	-59	-2	-243	-2	3	1	-11	i
O=C(Nc1nc2ccccc2[nH]1)NC1CCCCC1	-9	-5	-167	-13	3	-4	13	i
CCn1c(SCc2ccc([N+](=O)[O-])cc2)nnc1C(C)NC(=O)c1ccc(C)cc1 (stereo not drawn)	-11	-6	-7	-4	-2	-1	-12	i
Cc1ccc(C)c(C(C)NC(=S)NCc2ccc(F)cc2)c1 (stereo not drawn)	-26	-10	·	-2	-4	-3	1	i
O=c1[nH]cnc2scc(-c3ccc(-c4ccccc4)cc3)c12	-13	59	-306	35*	3	-2	-5	i	eIF4H inh retest=25;PABP polyA inh retest=81*
Cc1cc(NC(=O)COC(=O)CNS(=O)(=O)c2c(F)cc(F)cc2Br)no1	-2	·	-5	·	2	1	-15	·
O=C1CSc2ccc(C(=O)NCCC3=CCCCC3)cc2N1	-2	3	-16	9	5	1	2	·
O/N=C1/C2C3CC4C5C3C1C5C1(OCCO1)C42 (stereo not drawn)	-10	-6	-35	0	2	2	-7	i
COc1ccc(OC)c(NC(=O)C2CCCN2C(=O)OCc2ccccc2)c1 (stereo not drawn)	1	3	·	2	-7	-4	7	i
COc1ccc(S(=O)(=O)n2nc(C)cc2C)c(C)c1C	·	-5	·	2	6	4	-15	i
c1ccc2c(c1)c1ccccc1n1c(-c3ccc4c(c3)OCO4)nnc21	-9	-7	-196	6	-2	-15	·	i

The list is partial; count on the stated rates, not on these rows.
